HCMV UL50-53 inh: disrupts HCMV UL50-UL53 complex binding; inhibition, % (no concentration beside the values); 190,000 compounds, 0.15% hits; AID 1918969; HTRF UL50-UL53 interaction, normalized percent inhibition;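 active = both replicates at 50% or more, plus weaker picks with an unusually low signal ratio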;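 also: stock transfer was 100 nL into about 20 µL; 0% = negative control wells and 100% = wells with untagged competitor protein; inactives centre near -12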
GIV Gai3 FP: blocks GIV peptide binding to rat Galpha-i3; P08753; percent of control (FP), % (concentration not given with the values); Galpha-i3/FITC-GIV peptide fluorescence polarization, 90 min; stronger effect = lower value; scaled: aluminum fluoride 0%, vehicle 100%; 210,000 compounds, 0.42% hits; AID 1224905;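 active = replicate mean at 85% of control or lower, very high polarization wells dropped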;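 also: wells of about 15 µL received 100 nL stock; the first replicate is given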
Target sequence (P08753 whole entry, looked up): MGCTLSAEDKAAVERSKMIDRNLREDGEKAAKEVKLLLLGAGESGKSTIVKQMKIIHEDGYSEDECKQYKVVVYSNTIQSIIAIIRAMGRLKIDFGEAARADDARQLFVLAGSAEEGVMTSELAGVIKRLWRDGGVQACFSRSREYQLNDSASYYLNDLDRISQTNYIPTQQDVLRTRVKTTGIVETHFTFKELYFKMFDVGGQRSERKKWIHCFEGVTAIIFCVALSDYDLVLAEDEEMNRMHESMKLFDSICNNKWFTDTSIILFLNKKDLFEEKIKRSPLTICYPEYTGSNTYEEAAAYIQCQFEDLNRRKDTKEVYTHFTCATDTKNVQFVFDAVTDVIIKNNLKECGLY
Sa growth inh: S. aureus growth inhibition. S. aureus RN4220 growth, OD600, 20 h, 42 °C; stronger effect = lower value. relative growth, % (test concentration not listed). 170,000 compounds, 0.53% hits;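 active = growth at 42 °C up to 50% and 20 or more points under that at 30 °C, or under 10% at both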;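 also: 300 nL library stock went into each well; scaled to the means of positive and negative controls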
Sa growth inh second temp: further read-out of Sa growth inh, marked with its call; relative growth, %; measured here: growth at 30 °C;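 optical density after 20 h as mean of two plates; 100% = untreated growth and lower means inhibition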
Numbers without * were called inactive; / = no result given; & = joins results of further samples; ! = not active in a repeat.

SMILES | HCMV UL50-53 inh | GIV Gai3 FP | Sa growth inh | Sa growth inh second temp
CCO/C=N/c1c(C(=O)OCC)c2nc3ccccc3nc2n1Cc1ccccc1 | 4 | / | 118 | 101
CCOC(=O)CC1NC2CCCCC2NC1=O (centres undefined) | -10 | 108 | 100 | 97
CCN(CC)P(=S)(c1ccc(/C=N/NC(N)=O)s1)N(CC)CC | -28 | / | 81 | 82
CC(c1ccccc1)N1CCNCC1 (centres undefined) | -17 | 104 | 109 | 106
Cc1ccc(P(=S)(c2ccc(C)o2)N2CCOCC2)o1 | -11 | / | 102 | 91
CCOc1ccc(NC2=NC(C)CS2)cc1 (centres undefined) | -5 | / | 114 | 90
O=C(c1ccc(Cl)c(Cl)c1)C12CN3CN(CN(C3)C1)C2 | -14 | 103 | 95 | 89
Cn1cc(C=C(C#N)C#N)c2ccccc21 | -12 | 161 | 93 | 78
CC1(C)C(C(=O)Nc2ccccc2C#N)C1(C)C | -17 | / | 108 | 87
CC12CC(c3ccccc3O1)C(C(=O)O)C(=O)N2CCC1=CCCCC1 (centres undefined) | 3 | 102 | 88 | 92
COc1ccc(C=C2C(=O)N(C)C(=O)N(C)C2=O)cc1 | 43 | 94 | 102 | 103
CC(=O)OC1(Cc2ccccc2)CN2CCC1c1ccccc12 (centres undefined) | / | 104 | 125 | 100
O=C(O)C(Cc1cnc[nH]1)N1C(=O)c2ccccc2C1=O (centres undefined) | / | 99 | 120 | 93
COc1ccc(-n2c(Sc3ncccn3)nc3ccccc3c2=O)cc1OC | 0 | / | 110 | 102
O=C(c1ccc(CNS(=O)(=O)c2ccccc2)cc1)N1CCC2(CC1)OCCO2 | 10 | 103 | 91 | 98
CCN1C(=O)C(=C2C=C(C)OC(C)=C2)C(=O)N(CC)C1=S | 28 | / | 97 | 96
C/C(CC(c1ccccc1)c1c(O)c2ccccc2oc1=O)=N/O (centres undefined) | -18 | 100 | 93 | 87
O=C1CN=C(c2ccccc2)c2cc([N+](=O)[O-])ccc2N1 | -196 | 115 | 92 | 85
O=C(c1cccc(N2CCCC2=O)c1)N1CCC2(CC1)OCCO2 | -26 | 105 | 98 | 85
CCN1CCN(Cc2ccoc2)CC1 | -2 | 106 | 110 | 97

Structural class, the compounds so far containing a cyano group
SMILES | HCMV UL50-53 inh | GIV Gai3 FP | Sa growth inh | Sa growth inh second temp
Cn1cc(C=C(C#N)C#N)c2ccccc21 | -12 | 161 | 93 | 78
CC1(C)C(C(=O)Nc2ccccc2C#N)C1(C)C | -17 | / | 108 | 87

(more compounds)
SMILES | HCMV UL50-53 inh | GIV Gai3 FP | Sa growth inh | Sa growth inh second temp
CCC1CN2CCC34c5ccccc5NC3C(C)C1CC24 (centres undefined) | -33 | 105 | 93 | 98
Cc1nn(-c2ccccc2)c2c1P(=S)(N1CCOCC1)OC(c1ccccc1)=N2 (centres undefined) | 1 | / | 100 | 94
CC(C)(NO)C(=O)c1cc(C(C)(C)C)c(O)c(C(C)(C)C)c1 | -4 | / | 74 | 80
CCN1CCN(c2ccc(NC(=O)C(C)C)cc2)CC1 | -12 | / | 99 | 82
S=c1n(CN2CC=C(c3ccccc3)CC2)nc2sc3ccccc3n12 | -28 | / | 90 | 83
CCOC(=O)Cc1ccc(NC(=O)N2Cc3ccccc3-n3cccc3C2C)cc1 (centres undefined) | -7 | 105 | / | /
CN(C)/N=C/c1ccc(C2(O)C(=O)NC(=O)NC2=O)o1 | 5 | 103 | 94 | 91
CN(C)c1ccc(CN2CCN(Cc3ccccc3)CC2)cc1 | 6 | 99 | 105 | 107
OC1(c2cccc(F)c2)CC2CCC(C1)N2 (centres undefined) | 2 | 108 | 110 | 92
CCc1c(CCN)csc1C | 12 | 110 | 97 | 113
c1ccc(C2=NP(N3CCOCC3)(N3CCOCC3)=NC(N3CCOCC3)=N2)cc1 | -7 | / | 78 | 95
CCC(=O)c1c(O)n(C)c(=O)n(C)c1=O | -1 | 98 | 102 | 72
CCN1CCC2(CC1)NC(=O)c1ccccc1O2 | -12 | 100 | 100 | 106
Cc1ccccc1-c1nc(CS(=O)CC(=O)N2CCC3(CC2)OCCO3)c(C)o1 (centres undefined) | / | 101 | 108 | 87
Cc1nnc2cc(N3CCN(C)CC3)cnn12 | -64 | 106 | / | /
COC(=O)C1CNCCN1c1ccccc1 (centres undefined) | -14 | / | 81 | 89
CN1C(=O)c2ccccc2C(C(=O)N2CCC3(CC2)OCCO3)C1c1cccs1 (centres undefined) | 5 | 104 | 99 | 94
c1ccc2c(CN3CCCCC3)c[nH]c2c1 | -9 | / | 92 | 91
Cc1nn(CC(C)C)c(Cl)c1C(=O)NC1CC1 | -22 | / | 81 | 93
Cc1ncc2n1-c1ccc(Cl)cc1C(c1ccccc1F)=NC2 | -12 | / | 97 | 93

Gathered by group, the compounds so far containing a furan ring, fused or not (3)
SMILES | HCMV UL50-53 inh | GIV Gai3 FP | Sa growth inh | Sa growth inh second temp
Cc1ccc(P(=S)(c2ccc(C)o2)N2CCOCC2)o1 | -11 | / | 102 | 91
CCN1CCN(Cc2ccoc2)CC1 | -2 | 106 | 110 | 97
CN(C)/N=C/c1ccc(C2(O)C(=O)NC(=O)NC2=O)o1 | 5 | 103 | 94 | 91

The list goes on:
SMILES | HCMV UL50-53 inh | GIV Gai3 FP | Sa growth inh | Sa growth inh second temp
CCN1C(=O)/C(=C/C=C/c2ccco2)C(=O)NC1=S | / | 208 | 95 | 84
CN(C)CCCNC(=O)c1cc2cccnc2n(Cc2ccccc2)c1=O | -21 | 103 | / | /
CC(C)[C@H]1CN[C@H](C(=O)O)[C@H]1CC(=O)O | -26 | 105 | / | /
N#Cc1cc([N+](=O)[O-])ccc1NC(=O)c1cccn(Cc2cccc(F)c2)c1=O | / | 106 | 98 | 103
COc1ccc(NC(=O)c2cn(CCC#N)nc2-c2ccc(OC)cc2)cc1 | / | 106 | 95 | 92
Cc1[nH]c2c(C)cccc2c1CCN | 0 | 101 | 120 | 71
Cc1nnc(SCC(=O)Nc2ccc(C#N)c(Cl)c2)n1N | -4 | / | 93 | 86
c1ccc2c(c1)CNC(c1ccc3c(c1)OCO3)c1cccn1-2 (centres undefined) | 0 | / | 122 | 86
O=S(=O)(F)c1ccc(C2=CC(c3ccccc3)n3ncnc3N2)cc1 (centres undefined) | -15 | 102 | / | /
O=[N+]([O-])O[C@H]1CO[C@H]2[C@@H]1OC[C@H]2O[N+](=O)[O-] | 14&-24 | / | 99 | 104

Just Sa growth inh and HCMV UL50-53 inh, for 2 of the compounds above:
SMILES,Sa growth inh,HCMV UL50-53 inh
CN(C)CCCNC(=O)c1cc2cccnc2n(Cc2ccccc2)c1=O,/,-21
COc1ccc(NC(=O)c2cn(CCC#N)nc2-c2ccc(OC)cc2)cc1,95,/

Continuation.
SMILES | HCMV UL50-53 inh | GIV Gai3 FP | Sa growth inh | Sa growth inh second temp
CCN(CC)C(=O)c1ccc(NC(=O)Nc2ccccc2OC)cc1 | -4 | / | 93 | 97
CCOc1ccc(N2C(=O)NC(=O)/C(=C\c3ccc(N4CCCCC4)o3)C2=O)cc1 | -42 | 150 | / | /
O=C(Nc1ccc(Br)cc1C(=O)c1ccccc1Cl)c1ccc(Br)cc1 | 12 | 106 | 95 | 104
OC1C2(c3ccccc3)CN3CN(C2)CC1(c1ccccc1)C3 (centres undefined) | -3&-10 | 108&101 | 105 | 97
CCOc1cc2c(cc1OCC)-n1cccc1C(c1ccccc1O)NC2 (centres undefined) | 9 | 102 | 74 | 80
OC[C@H]1O[C@@H](Oc2c[nH]c3ccc(Br)c(Cl)c23)[C@H](O)[C@@H](O)[C@H]1O | -13 | 106 | 31 | 20
CN=C(Cl)c1cccs1 | -18 | / | 82 | 95
NNC(N)=O | -20 | 106 | / | /
ClC1C(Cl)C(Cl)C(Cl)C(Cl)C1Cl (centres undefined) | -14 | / | 87 | 22
CCCC12CN3CC(C)(CN(C1)C3c1ccccn1)C2=O (centres undefined) | -28 | 97 | 90 | 86

Some values from the results shown.
`O=[N+]([O-])O[C@H]1CO[C@H]2[C@@H]1OC[C@H]2O[N+](=O)[O-]` in Sa growth inh → 99
`COc1ccc(NC(=O)c2cn(CCC#N)nc2-c2ccc(OC)cc2)cc1` in Sa growth inh second temp → 92
`CCN1C(=O)C(=C2C=C(C)OC(C)=C2)C(=O)N(CC)C1=S` in Sa growth inh → 97
`COC(=O)C1CNCCN1c1ccccc1` (centres undefined) in Sa growth inh second temp → 89
`O=C1CN=C(c2ccccc2)c2cc([N+](=O)[O-])ccc2N1` in Sa growth inh → 92

Following part:
SMILES | HCMV UL50-53 inh | GIV Gai3 FP | Sa growth inh | Sa growth inh second temp
O=c1c2ccccc2nc(/C=C/c2cccc3ccccc23)n1-c1ccc(Cl)cc1 | / | 113 | 129 | 98
O=C(O)CCC(=O)OC1N=C(c2ccccc2Cl)c2cc(Br)ccc2NC1=O (centres undefined) | -3 | 98 | 111 | 93
CCN1C(=O)C2(Cc3ccccc3N3CCCC32)C(=O)N(CC)C1=S (centres undefined) | 9 | / | 84 | 77
CSc1ccc(/C=C/c2nc3ccccc3c(=O)n2-c2cccc(Cl)c2C)cc1 | / | 108 | 116 | 96
O=C(O)CCC1C(=O)NC(=O)NC1=O | -7 | 104 | 84 | 71
c1ccc2c(c1)Oc1ccccc1O2 | -9 | 105 | 93 | 92
Cn1c(N)c(N2CCNCC2)c(=O)n(C)c1=O | -20 | / | 101 | 88
Clc1cc(I)cc(Cl)c1NC1=NCCN1 | -3 | 104 | / | /
COc1ccc(C(=O)OC2CC3CCC(C2)N3)cc1OC (centres undefined) | -9 | 106 | 91 | 83
Oc1ccc2c3c1O[C@H]1c4oc5ccccc5c4C[C@@]4(O)[C@@H](C2)N(CC2CC2)CC[C@]314 | -36 | 108 | 92 | 82
Clc1ccc(COC(Cn2ccnc2)c2ccc(Cl)cc2Cl)c(Cl)c1 (centres undefined) | -15&-2&2&-2&-9&30 | 93 | 0.0*! | 0.1*!
CC(C)(C)c1ccc(C(=O)Nc2ccc(Cl)cc2C(=O)c2ccccc2)cc1 | -24 | 108 | 86 | 86
COC(=O)CC1(CC(=O)OC)C(=O)N(C)C(=O)N(C)C1=O | -12 | 105 | 111 | 98
CCc1ccc(NC2=NCCS2)cc1 | 33 | 102 | 104 | 77
OC1(C#CCN2CCCC[C@H]2c2cccnc2)CCCCC1 | -6 | 112 | 72 | 91
CC(CCc1ccccc1)NC(C)C(O)c1ccc(O)cc1 (centres undefined) | -11&-25 | 99 | 95 | 93
CC1[C@H](C)OC(=O)CC(O)CC(O)CC(O)CCC(O)C(O)C[C@]2(O)CC(O)C(C(=O)O)C(CC(OC3O[C@H](C)[C@@H](O)[C@H](N)[C@@H]3O)/C=C/C=C/C=C/C=C/CC/C=C/C=C/[C@H](C)[C@H]1O)O2 (some centres undefined) | -9 | / | 93 | 91
CC(C)OP(C)(=O)C(N)=O (centres undefined) | -30 | / | 94 | 90
CN1C(=O)C(=Cc2ccc(O)cc2)C(=O)N(C)C1=O | 8 | 97 | 94 | 91
CC(c1ccccc1)n1cncc1C(=O)O (centres undefined) | 1 | / | 111 | 89
O=C1/C(=C/c2ccccc2)C[C@@]2(O)[C@H]3Cc4ccc(O)c5c4[C@@]2(CCN3CC2CC2)[C@H]1O5 | -10 | 101 | / | /
Cc1cccc(-n2c(CC3C(=O)Nc4ccc(C)cc43)nc3ccccc3c2=O)c1 (centres undefined) | -39 | 98 | 105 | 84
N#Cc1c2c(c(O)[nH]c1=O)CN(Cc1ccccc1)CC2 | -17 | / | 103 | 91
COc1ccc(C2CNC(=O)C2)cc1 (centres undefined) | / | 107 | 96 | 84
CCCC[N+]1(C)C2CCC1CC(O)C2 (centres undefined) | / | 106 | 110 | 97
COCCNC(=O)Cn1cc(C=C2C(=O)N(C)C(=O)N(C)C2=O)c2ccccc21 | -6 | 96 | 94 | 87
Cc1onc(-c2c(Cl)cccc2Cl)c1/C(N)=N/OC(=O)N(C)C | 6 | 108 | 102 | 95
NCCc1c[nH]c2ccc(F)cc12 | -13 | 98 | 83 | 84
CCCC1=C(C(=O)OCC)C2(C(=O)Nc3ccccc32)C(C(=O)OC(C)C)=C(N)O1 (centres undefined) | 4 | 104 | / | /
C=C[C@H]1CN2CC[C@H]1C[C@@H]2[C@@H](OC(=O)OCC)c1ccnc2ccc(OC)cc12 | -16 | / | 92 | 85
O=c1cccc2n1CC1CC2CN(c2nc(Cl)nc(Cl)n2)C1 (centres undefined) | -4 | 94 | 92 | 100
CCOC(=O)c1c(C)n(C2CC2)c2ccc(OC)cc12 | -8 | 104 | 108 | 95
CCCCCN(C)CCC(O)(P(=O)(O)O)P(=O)(O)O | -20&-26 | 108&107 | 101 | 91
CCN(CC)Cc1nc2ccccc2c(=O)n1-c1ccc(F)cc1 | 4 | 106 | 123 | 107
O=C(CN1CCC(N2CCCCC2)CC1)N1CCC2(CC1)OCCO2 | 9 | 96 | 87 | 90
O=C(Nc1ccc(Cl)cc1C(=O)c1ccccc1)c1cc2cc([N+](=O)[O-])ccc2s1 | -20 | 103 | / | /
Cc1cccc(-c2nc(CN3C(=O)C(C)N=C(c4ccccc4F)c4cc(Cl)ccc43)c(C)o2)c1 (centres undefined) | / | 101 | 101 | 76
O=C(c1ccccc1)c1cn(CCCOc2ccccc2)c2ccccc12 | / | 101 | 101 | 80
Cc1ccc(C(C)C)c(OC(=O)N(C)C)c1CN(C)C | -29 | 106 | 84 | 81
N=C1SCC(=O)N1Cc1ccccc1 | -25 | 102 | 90 | 93
CC(C)c1ccc(CCN)cc1 | -6 | / | 97 | 97
CNCC(O)c1ccc(O)cc1 (centres undefined) | -11&-20&-97&-44&-71&-31 | 104 | 84 | 79
CC12NC(=O)CN1CCc1ccccc12 (centres undefined) | -12 | 103 | 93 | 93

Screening data as filed in PubChem.

An excerpt; the hit share may differ from the screen's.
